Compound activity deposited in PubChem BioAssay by National Center for Advancing Translational Sciences (NCATS).
A488 autofl: qHTS Assay for Spectroscopic Profiling in A488 Spectral Region; actives 0.1% (n = 59,000); compound autofluorescence, A488 spectral region, dye equivalency; active compounds read high; max dye equivalency, M; active = above 10 nM dye equivalent; inconclusive = 1 to 10 nM; inactive = 1 nM or less; about half of its hits are not listed in these tables;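 note: highest value over a series up to 38 µM; compound alone in buffer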
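Spectroscopic profiling in the A488 region: compounds in pH 8.0 Tris (100 mM), 15 min RT, CCD imaging with 480 nm excitation and 540 nm emission; responses normalized against A488 dye standards.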
AID923: qHTS Assay for Allosteric/Competitive Inhibitors of Caspase-1: Spectroscopic Profiling in AFC Spectral Region | compound fluorescence, AFC spectral region (405/520 nm); almost no hit is shown here | actives 1.1% (n = 75,000) | AID 923, 2007 | Potency, µM (series often up to 57.5 µM), inactives show at the highest dose fluorescence increase, hits mostly activators; active = well fitted activation curve with a large enough effect; inconclusive = small, poorly fitted or top-dose-only effect;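 note: potency is the fitted concentration of half-maximal effect; 0% is about no effect; scaled to a free AFC standard on each plate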
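Titrations up to 57 uM read every 20 sec for 3 min (405/520 nm) with 50 nM caspase 1 and 5 uM Ac-WEHD-AFC, pH 7.5 HEPES buffer. Fluorescence-vs-time intercept gave baseline, scaled against on-plate AFC standard.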
A647 autofl: qHTS Assay for Spectroscopic Profiling in A647 Spectral Region | Compound fluorescence, A647 channel (570/671 nm), Tris buffer | max dye-equivalent concentration, M | 59,000 tested, under 10 active | AID 592, 2007; active means above 1 µM dye equivalent; inconclusive means 0.1 to 1 µM; inactive means 0.1 µM or less;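 note: values scaled relative to a standard on each plate; highest value over a series up to 38 µM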
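Fluorescence read (570 nm ex, 671 nm em) after 15 min RT incubation of compounds in 100 mM Tris buffer, pH 8.0; values expressed as dye-equivalent concentration against a six-point A647 standard series on each plate.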
TSHR agonist: qHTS Assay for Agonists of the Thyroid Stimulating Hormone Receptor | Thyrotropin receptor (Homo sapiens), P16473 | HEK293-CNG-TSHR cells (CNG channel as cAMP sensor), membrane potential dye, cAMP | Potency, µM (highest dose often 57.1 µM), for inactives: top-dose activation, actives largely listed as activators | actives 0.48% (n = 73,000); active = well fitted activation curve of enough size with the parental cells flat; inconclusive = any curve in the parental cells; inactive = parental cells flat and receptor cells flat or falling; note: potency is the fitted concentration of half-maximal effect; % of control where 0% means no effect; weak receptor curves with flat parental cells got no call and are not listed
Target sequence (P16473 whole entry, looked up): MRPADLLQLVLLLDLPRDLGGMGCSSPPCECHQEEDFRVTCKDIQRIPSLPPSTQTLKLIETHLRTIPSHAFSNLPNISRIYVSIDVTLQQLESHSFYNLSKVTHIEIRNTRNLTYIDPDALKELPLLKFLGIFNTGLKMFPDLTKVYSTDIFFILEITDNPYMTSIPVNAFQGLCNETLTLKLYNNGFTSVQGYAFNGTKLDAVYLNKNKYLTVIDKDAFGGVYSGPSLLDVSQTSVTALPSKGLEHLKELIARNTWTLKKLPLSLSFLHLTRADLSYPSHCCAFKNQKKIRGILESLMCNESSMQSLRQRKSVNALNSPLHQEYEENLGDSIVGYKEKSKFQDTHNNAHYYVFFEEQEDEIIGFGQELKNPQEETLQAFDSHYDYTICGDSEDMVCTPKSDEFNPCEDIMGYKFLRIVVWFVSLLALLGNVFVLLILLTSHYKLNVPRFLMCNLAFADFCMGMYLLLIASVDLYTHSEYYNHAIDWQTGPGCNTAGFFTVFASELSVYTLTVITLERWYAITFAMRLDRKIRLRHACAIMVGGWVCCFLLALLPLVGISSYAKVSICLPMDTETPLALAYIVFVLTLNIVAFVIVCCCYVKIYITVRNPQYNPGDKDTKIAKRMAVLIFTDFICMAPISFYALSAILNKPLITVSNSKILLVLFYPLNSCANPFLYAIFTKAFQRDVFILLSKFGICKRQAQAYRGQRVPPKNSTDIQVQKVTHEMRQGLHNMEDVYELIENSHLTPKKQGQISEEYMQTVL
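HEK 293 cells stably expressing TSHR and a cAMP-gated CNG channel; parental CNG-only cells as counterscreen. Cells preloaded 60 min with membrane potential dye plus 100 uM RO 20-1724, then compound 30 min; fluorescence read at 590 nm.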
Resorufin fluor: qHTS Assay for Spectroscopic Profiling in Resorufin Spectral Region; AID 588, 2007; max dye-equivalent concentration, M; Compound fluorescence, resorufin region 547/598 nm, buffer; active compounds read high; actives 0.04% (n = 59,000); active = above 10 nM dye equivalent; inconclusive = 1 to 10 nM; inactive = 1 nM or less; a few of its hits are not listed in these tables; note: highest value over a series up to 38 µM
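Compounds in 100 mM Tris, pH 8.0, incubated 15 min at room temperature, then fluorescence read at 547 nm excitation/598 nm emission. Signal converted to dye-equivalent concentration via an on-plate six-point resorufin standard curve, per compound concentration.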
Active calls of the source: *; i = inactive; ? = inconclusive; . = no result given; & = joins results of further samples; [ ] = dose if it differs, or a comment.

SMILES | A488 autofl | AID923 | A647 autofl | TSHR agonist | Resorufin fluor
CC1Oc2ccccc2N(Cc2ccccc2F)C1=O (configuration not stated) | i | 0.4% | 4.6e-09 | . | i
O=C(c1ccc2c(=O)n(C3CCCC3)c(=S)[nH]c2c1)N1CCN(C2CCCCC2)CC1 | i | 0.9% | 7.6e-09 | -6% | i
CCS(=O)(=O)CCSc1nc2c(cc1C#N)CCCC2 | i | 0.7% | 2.3e-08 | . | i
CN(C)CCNC(=O)COc1cccc(Cl)c1 | i | 1.3% | 1e-09 | 0% | i
C[C@H]1CC[C@@H]2[C@@H](C)[C@H]3[C@H](C[C@H]4[C@@H]5CC=C6C[C@@H](O[C@]7(O[C@H]8O[C@@H](C)[C@@H](O)[C@@H](O)[C@@H]8O)C[C@@H](O[C@@H]8O[C@H](CO)[C@@H](O)[C@H](O)[C@@H]8O)[C@@H](O)[C@H](CO)O7)CC[C@]6(C)[C@H]5CC[C@@]34C)N2C1 | i | -3.4%[25.7 µM] | 4.4e-08 | 0%[25.6 µM] | i
COc1ccc(F)cc1S(=O)(=O)N1CCCN(S(=O)(=O)c2cc(F)ccc2OC)CC1 | i | -1.1% | 4.4e-08 | . | i
COC(=O)[C@@H](NC(=O)NCc1cccs1)C(C)C | i | 5.5% | 4e-08 | 1% | i
c1ccc(-c2ccc(N3CC[C@@]4(CCCNC4)C3)cc2)cc1 | i | -0.3% | 3.1e-08 | -2% | i
CN(Cc1c(F)cccc1Cl)c1ccc(S(=O)(=O)N2CCOCC2)cn1 | i | -0.7% | 4.9e-09 | ? | i
O=C(CCn1c(=O)[nH]c2ccccc2c1=O)N1CCN(c2cccc(C(F)(F)F)c2)CC1 | i | -0.2% | 1e-09 | 9% | i
O=C1CSC(=Nc2ccc(O)cc2)N1c1ccc(O)cc1 | i | . | 3.8e-08 | . | i
Cc1cccc(NC(=O)c2sc(NC(=O)c3ccco3)c(C#N)c2C)c1C | i | 1.5% | 3.3e-08 | -1% | i
CC1(C)OC(=O)N(c2ccccn2)C1(C)O (configuration not stated) | i | 3.4% | 7.4e-09 | 3% | i
O=S(=O)(CCc1ccccc1)N1CCOCC1 | . | -2.2% | . | -8% | .
COn1c(SCC(N)=O)nc2ccccc2c1=O | i | -0.4% | 1.1e-08 | 1% | i
O=C(Nc1ccc(-c2nc3ncccc3o2)cc1)c1ccc(Br)o1 | i | 2.8% | 4.7e-08 | 6% | i
COc1ccc(CN(C(=O)CSc2nnc(-c3ccc(F)cc3)o2)c2ccc(F)cc2)cc1 | i | 0.0% | 8.6e-09 | 21% | i
CC12CCC(=O)N1C(C(=O)O)Cc1c2[nH]c2ccccc12 (configuration not stated) | i | -0.1% | 1e-09 | ? | i
O=C(NCc1ccco1)c1cc2cc3ccc(Cl)cc3nc2o1 | i | 1.9% | 1e-09 | -4% | i
CC[N+](C)(CC)CCN1C(=O)c2ccccc2S1(=O)=O | i | -0.1%[11.5 µM] | 3.2e-08 | -1%[11.4 µM] | i

2 records drawn at random from the list so far:
SMILES | A488 autofl | AID923 | A647 autofl | TSHR agonist | Resorufin fluor
O=C(NCc1ccco1)c1cc2cc3ccc(Cl)cc3nc2o1 | i | 1.9% | 1e-09 | -4% | i
CC1(C)OC(=O)N(c2ccccn2)C1(C)O (configuration not stated) | i | 3.4% | 7.4e-09 | 3% | i

The listing continues:
SMILES | A488 autofl | AID923 | A647 autofl | TSHR agonist | Resorufin fluor
CC1=C(C(=O)Nc2ccccc2C)C(c2ccccc2)NC(=O)N1 (configuration not stated) | . | -2.7% | . | 1% | .
O=c1c(-c2ccc(Cl)cc2)nc2cncnc2n1Cc1ccc(F)cc1 | i | 5.3% | 1.1e-08 | 15% | i
COc1ccc(S(=O)(=O)NCCC(C)C)cc1OC | i | -1.7% | 1.6e-08 | 10% | i
Cc1cc(=S)cc(C)n1CCCn1ccnc1 | i | 0.9% | 3.4e-08 | -2% | i
COc1ccccc1S(=O)(=O)Cc1ccc(C(=O)NC(C)c2ccc3c(c2)OCCO3)o1 (configuration not stated) | i | -0.5% | 1e-09 | 9% | i
C=CCNc1nc2ccccc2nc1NS(=O)(=O)c1cccs1 | i | 3.3% | 1.8e-08 | 7% | i
Cc1ccc2[nH]c(CCN(C)C)c(CC#N)c2c1 | i | . | 9.1e-08 | . | i
O=C(CSc1nnc(COc2cccc3cccnc23)o1)c1ccc(F)cc1 | i | 0.8% | 2.6e-09 | 20% | i
C[C@](O)(C(=O)Nc1ccc(S(=O)(=O)c2ccccc2)cc1)C(F)(F)F | . | -0.1% | . | ? | .
c1cc2c(cc1Cn1cnnn1)OCO2 | i | 0.2% | 7.5e-09 | 17% | i
COc1cccc(C2CC(c3ccc(Cl)cc3)Nc3nc(N)nn32)c1 (configuration not stated) | . | 0.7% | . | 1% | .
C#CC1(O)CC(C)N(C)C(C)C1 (configuration not stated) | i | 0.1% | 3.5e-09 | 3% | i
CCn1c(SCC(=O)Nc2ccc3c(c2)OCO3)nnc1-c1cnccn1 | i | -1.2% | 4e-09 | 23% | i
Cn1cccc1CNC(=O)Nc1ccc(Cl)c(Cl)c1 | i | 1.4% | 2e-08 | -6% | i
COC(=O)c1ccc(C(NC(=O)OCc2ccccc2)/C(C)=C/[C@@H](C)C(=O)NCc2nn(-c3ccccc3)nc2C)cc1 (some centres not stated) | . | 0.5% | . | ? | .
CCCCN(CC)S(=O)(=O)c1ccc(C(=O)Nc2nnc(COC)o2)cc1 | i | 0.8% | 1.3e-09 | 7% | i
Cc1cc(C)n(-c2nc3ccccc3c(=O)n2OCc2ccc(F)cc2)n1 | i | -0.9% | 1e-09 | . | i
O=S(=O)(NCC(c1ccccc1)N1CCNCC1)c1ccc(Cl)cc1 (configuration not stated) | . | 2.2% | . | 0%[11.4 µM] | .
CCOc1cc(C(=O)OCc2ccc(C(=O)OC)o2)cc(Br)c1OC | i | -0.6% | 5.1e-09 | ? | i
O=C(c1ccco1)N1CCC2(CCCN(Cc3ccncc3)C2)CC1 | i | 0.4% | 1e-09 | 7% | i
CCOC(=O)N1CCN(c2cc(=O)n(-c3ccc(OC)cc3)c(=O)[nH]2)CC1 | i | -0.4% | 1e-09 | -2% | i
COc1ccccc1Nc1nc(N)nc(CSc2ncccn2)n1 | i | 1.1% | 1e-09 | 1% | i
CCCC(=O)Nc1ccc(Cl)c(NC(=O)C(C)(C)C)c1 | i | -2.4% | 2.1e-09 | 0% | i
Cc1nc2cc(S(=O)(=O)N3CCC(C(=O)O)CC3)ccc2n1C1CCCC1 | . | 2.9% | . | -3% | .
O=C1CCCc2c1nc(-c1ccco1)n2O | i | -1.1% | 2.3e-08 | 16% | i
CCn1cnc2c1c(=O)n(CC(=O)N1CCc3ccccc31)c(=O)n2Cc1ccccc1 | i | 0.5% | 1.7e-08 | 7% | i
CC(C)Oc1ccc2nnnn2n1 | i | -1.4% | 2.4e-08 | -1%[11.4 µM] | i
CCCNC(=O)Nc1ccccc1C(=O)Nc1ccc(OC)cc1 | i | -1.5% | 1.2e-09 | 1% | i
CCN1CCN(CC(=O)Nc2sc3c(c2C#N)CCC(C)C3)CC1 (configuration not stated) | i | -0.1% | 1e-08 | ? | i
CCOC(=O)N/N=C1/C[C@@H](O)[C@@H](O)[C@@H]2[C@@H]3C(=O)N(Cc4ccc5c(c4)OCO5)C(=O)[C@H]3CC[C@@H]12 | . | -0.9%[11.5 µM] | . | 3%[11.4 µM] | .
CCCCc1c(O)nc(N2CCN(Cc3ccccc3)CC2)[nH]c1=O | i | -0.9% | 5.8e-09 | 0% | i
CCSc1nnc(Cc2cc(=O)[nH]c(=O)[nH]2)n1-c1cc(C)ccc1C | i | 0.0% | 2.6e-08 | -3% | i
O=C(NCCCN1CCOCC1)c1c(O)c2ccccc2[nH]c1=O | i | -1.5% | 1e-09 | 2% | i
CCOc1ncccc1C(=O)OCC(=O)NCCc1ccc(OC)cc1 | i | -1.5% | 1e-09 | 5% | i
COC(=O)c1cc(=O)n2c(-c3ccc(OC)cc3)csc2n1 | i | . | 6.2e-09 | . | i
COC(=O)c1ccc(NC(=O)C(C)N2C(=O)c3ccccc3C2=O)cc1 (configuration not stated) | i | -1.6% | 3e-08 | 7% | i
CC(=O)Nc1ccc(NC(=O)Cn2cnc3c(cnn3C(C)(C)C)c2=O)cc1 | i | 0.8% | 5.3e-09 | 7% | i
N#Cc1ccc(CSc2nnc(NC(=O)C3CCCO3)s2)cc1 (configuration not stated) | i | -1.0% | 9.4e-09 | 2% | i
Cc1cc(O)c(NC(=O)c2ccco2)cc1C | i | -0.9% | 6e-08 | 25% | i
COc1cc(=O)n(C)c2cc(N(C)C)ccc12 | i | 0.2% | 1.6e-08 | -8% | i
CSc1nc2c(c(=O)n1-c1ccccc1)SCC2 | i | -1.1% | 1e-09 | 9% | i
O=C(CCc1ccc(CCC(=O)c2cccs2)s1)c1cccs1 | i | 3.1% | 2.4e-08 | ? | i
CS(=O)(=O)N(CC(=O)N1CCN(Cc2ccc3c(c2)OCO3)CC1)c1ccc2c(c1)OCO2 | i | 2.7% | 1e-09 | 5% | i
CCOC(=O)c1cnn(CCOC(=O)C2CC2)c1NC(=O)C1CC1 | i | 1.1% | 1e-09 | 4% | i
O=C(Nc1nc2ccccc2n1CCN1CCCC1)C1CCCCC1 | i | -0.9% | 1e-09 | 15% | i
Cc1ccc(NC(=O)N(Cc2ccco2)C(C)c2ccco2)cc1C (configuration not stated) | i | -2.0% | 2.2e-09 | ? | i
O=C(CN(C1CCCCC1)S(=O)(=O)c1ccc(F)cc1)NC1CC1 | . | -1.1% | . | 41%[11.4 µM] | .
NC(=O)CS(=O)(=O)c1nc2ccccc2n1Cc1ccccc1F | i | 0.0% | 1e-09 | -1% | i
COC(=O)c1cccc(NC(=O)CN2CCN(Cc3ccccc3)CC2)c1 | i | -1.1% | 1e-09 | 9% | i
Cc1sc2nc(C3CC3)nc(NCCNS(C)(=O)=O)c2c1C | i | -0.7% | 3.7e-08 | 6% | i
C=CCNc1nc(C2(C)CC3(CC(C)OC3=O)C(=O)O2)cs1 (configuration not stated) | . | 0.9% | . | -22%[11.4 µM] | .
O=C(CSc1nnc(-c2ccccc2)o1)c1nnc(-c2ccccc2)o1 | i | 1.0% | 3.5e-08 | 9% | i
COc1cc(C2N(c3ccccn3)C(=O)C3CCCN32)cc(OC)c1OC (configuration not stated) | i | -0.4% | 3.9e-09 | 5% | i
COCC(=O)O[C@]1(CCN(C)CCCc2nc3ccccc3[nH]2)CCc2cc(F)ccc2[C@@H]1C(C)C | i | -1.4% | 1.8e-08 | -13% | i
COc1ccc2c(c1OC)C(=O)N(c1ccccn1)C2 | i | 0.8% | 9.6e-09 | 6% | i
COc1ccc(NC(=O)c2cc(-c3cc(C)cc(C)c3O)n[nH]2)cc1Cl | i | -0.8% | 8.9e-09 | ? | i
NCCCCNCCCN | i | -4.7%&0.5%&-2.0% | 1e-09 | 2% | i

One compound at a time, as listed above. Order of screens: A488 autofl | AID923 | A647 autofl | TSHR agonist | Resorufin fluor
`C=CCNc1nc(C2(C)CC3(CC(C)OC3=O)C(=O)O2)cs1` (configuration not stated) is listed with . | 0.9% | . | -22%[11.4 µM] | .
`CCOC(=O)c1cnn(CCOC(=O)C2CC2)c1NC(=O)C1CC1` is listed with i | 1.1% | 1e-09 | 4% | i
`Cc1sc2nc(C3CC3)nc(NCCNS(C)(=O)=O)c2c1C` is listed with i | -0.7% | 3.7e-08 | 6% | i
`COc1ccc(NC(=O)c2cc(-c3cc(C)cc(C)c3O)n[nH]2)cc1Cl` is listed with i | -0.8% | 8.9e-09 | ? | i
`O=C(CSc1nnc(-c2ccccc2)o1)c1nnc(-c2ccccc2)o1` is listed with i | 1.0% | 3.5e-08 | 9% | i

A portion of the library, so the mix of outcomes need not match the whole.
